Assay outcomes deposited in PubChem BioAssay by National Center for Advancing Translational Sciences (NCATS).
Sfp PPTase inh: inhibitors of Bacillus subtilis Sfp phosphopantetheinyl transferase; Q9F4F7; Potency, µM, without a hit: max response, negative = inhibition, usual class: inhibitors; 3.5% of 310,000 active; Biochemical Sfp PPTase activity, qHTS; active means well fitted inhibition curve with a large enough effect; inconclusive means small, poorly fitted or top-dose-only effect, or another doubt; inactive means no such curve, though single readings can be large or run the other way;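 further: the enzyme is Sfp with the accession as filed and its product quenches rhodamine fluorescence; potency means the concentration at half of the fitted maximal effect; 0% = enzyme reaction without inhibitor and -100% = no enzyme wells; top concentration of the series not given in the record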
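Fluorescence-quenching assay: 15 nM Sfp-PPTase preincubated 15 min at room temperature with compound, then 5 uM rhodamine-CoA and 12.5 uM BHQ-2-labelled YbbR peptide added. Fluorescence (ex 525/em 598 nm) read at start and after 30 min; difference gives rate.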
TRPV1 potentiator: enhances activation of the human vanilloid receptor TRPV1; Q8NER1; TRPV1-expressing cells, Fluo-8 calcium influx, capsaicin EC20 potentiation; host cell line not named in the record; control for the full effect not named in the record; potentiation, % at 8.33 µM; 0.02% of 320,000 active; active means potentiation above 80%; inconclusive means 30% to 80%; inactive means below 30%; further: 0% is about no effect
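Cells expressing TRPV1 were dye-loaded with Fluo-8 and read kinetically: 10 s baseline, 3 min after compound (agonist portion), then 2 min after EC20 capsaicin (allosteric enhancer portion). Calcium-bound dye fluorescence at 480/520 nm.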
ClpP mod: qHTS Assay for Activators of ClpP. 1.9% of 340,000 active. purified B. subtilis ClpP, FRET peptide cleavage, 20 min. AID 651965, 2013. ATP-dependent Clp protease proteolytic subunit (Bacillus subtilis (strain 168)), P80244. Potency, µM (doses to about 57.5 µM), for inactives: at the highest dose activity change, negative = active; active = well fitted falling curve with a large enough effect; inconclusive = small, poorly fitted or top-dose-only effect; inactive = no such curve, though single readings can be large or run the other way; further: potency means the concentration at half of the fitted maximal effect; the source files actives as falling curves though it sought activators and does not explain the sign; nearly all actives have a fitted effect of over 65% in size; many hits overshoot -100%
Target sequence (P80244 whole entry, looked up): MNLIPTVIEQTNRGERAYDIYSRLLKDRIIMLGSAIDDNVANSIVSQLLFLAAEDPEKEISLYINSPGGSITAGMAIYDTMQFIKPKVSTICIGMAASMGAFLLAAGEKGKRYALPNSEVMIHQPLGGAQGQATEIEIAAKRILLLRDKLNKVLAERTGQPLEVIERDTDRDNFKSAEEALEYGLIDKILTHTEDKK
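Buffer: 100 mM Tris/HCl pH8, 100 mM KCl, 0.05% low protease BSA, 2.5% glycerol, 0.01% Tween-20. ClpP 10 microg/mL final; 20 min RT; delta FRET normalized to ADEP and DMSO controls.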
Menin-MLL FL inh: menin-MLL binding inhibition, fluorescein peptide | 290,000 tested, under 10 active | AID 1766 | FP activity change, % at 61.4 µM | Fluorescence polarization, fluorescein-MLL peptide displacement from menin; inconclusive = falling polarisation curve, or a change in total fluorescence; inactive = total fluorescence flat and polarisation flat or rising; no compound was filed as active; the % refers to the polarisation; negative = inhibition;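 further: % of control where 0% means no effect; inhibitors lower the polarisation; unlabelled MLL peptide was the positive control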
TRPML1 inh: human mucolipin-1 channel inhibition; TRPML1-inducible cells, Ca2+ dye fluorescence, FDSS; hits give low values; inhibition of EC80 agonist-evoked calcium signal; Q9GZU1; AID 624415; activity change, negative = inhibition, % (no concentration beside the values); 0.02% of 390,000 active; in the data active means activity change below about -50%; inconclusive means about -30% to -50%; inactive means above about -30%;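 further: stimulus is agonist 54-4 at its EC80 concentration; on the % scale 0 is the no-effect control and ±100 the full control effect; compound concentration not given in the record; the text of the record puts the active cut at -80%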
Target sequence (Q9GZU1 whole entry, looked up): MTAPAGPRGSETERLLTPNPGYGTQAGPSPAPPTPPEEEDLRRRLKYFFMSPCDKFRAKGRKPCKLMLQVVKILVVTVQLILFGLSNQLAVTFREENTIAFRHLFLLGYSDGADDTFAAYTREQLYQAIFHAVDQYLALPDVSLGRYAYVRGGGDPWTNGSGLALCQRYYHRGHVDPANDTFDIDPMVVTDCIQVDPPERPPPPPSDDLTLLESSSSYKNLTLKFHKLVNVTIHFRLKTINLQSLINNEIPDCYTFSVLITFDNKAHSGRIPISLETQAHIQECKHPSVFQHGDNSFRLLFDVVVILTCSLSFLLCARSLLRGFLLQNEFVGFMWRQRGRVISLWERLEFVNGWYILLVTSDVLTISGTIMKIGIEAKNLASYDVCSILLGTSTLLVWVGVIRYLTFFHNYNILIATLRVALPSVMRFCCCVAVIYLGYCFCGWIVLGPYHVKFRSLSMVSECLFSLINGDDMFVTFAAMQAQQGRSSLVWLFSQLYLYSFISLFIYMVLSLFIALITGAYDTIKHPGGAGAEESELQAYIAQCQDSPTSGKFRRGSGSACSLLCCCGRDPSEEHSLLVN
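Calcium fluorescence in TRPML1-DL cells induced overnight with Tet: a 110 s read after compound pin addition, then a 110 s antagonist read after challenge with 54-4 at 4 uM final (EC80).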
gsp ag: activates gsp, the McCune-Albright syndrome mutation | gsp mutant cells, cAMP HTRF, 30 min; control for the full effect not named in the record | Potency, µM (doses to about 76.9 µM), for inactives: at the top dose activation (cAMP increase), actives largely listed as activators | 0.13% of 340,000 active | AID 624287; active = well fitted activation curve with a large enough effect; inconclusive = small, poorly fitted or top-dose-only effect, or another doubt; inactive = no such curve, though single readings can be large or run the other way; cell line not stated here;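 further: phosphodiesterase inhibitor Ro 20-1724 added with compounds to block cAMP breakdown; potency means the concentration at half of the fitted maximal effect; nearly all actives have a fitted effect of over 60% in size; about a fifth of the inactives were tested at one dose only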
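Cells stably selected in G418 were plated at 2000/well, grown 16-24 hr, then given compounds in DMSO with the PDE inhibitor […] (300 uM solution added) for 30 min at 37C; cAMP was read by HTRF.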
gsp antagonist: gsp mutant antagonism. gsp-mutant cells, cAMP HTRF, 30 min; control for the full effect not named in the record. Potency, µM (doses to about 76.9 µM), for the others: top-dose activity change, negative = inhibition, usual class: inhibitors. 0.4% of 340,000 active. AID 624288; active = falling curve of any shape with a large fitted effect; inconclusive = falling curve, mostly with a smaller effect; inactive = flat or rising curve; cell line not stated here;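 further: intracellular cAMP measured with PDE inhibitor Ro 20-1724 present during compound exposure; potency means the concentration at half of the fitted maximal effect; on the % scale 0 is the no-effect control and ±100 the full control effect; nearly all actives have a fitted effect of over 65% in size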
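Measurement of cellular cAMP by homogeneous time-resolved fluorescence following a 30 min compound exposure at 37C. The PDE inhibitor […] was present throughout; the assay buffer was DPBS with 0.05% BSA and 0.005% Tween 20.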
Active calls of the source: *; ? = inconclusive; / = not tested or not shown; & = joins results of further samples; [ ] = another dose, or the depositor's remark.

SMILES	Sfp PPTase inh	TRPV1 potentiator	ClpP mod	Menin-MLL FL inh	TRPML1 inh	gsp ag	gsp antagonist
Cc1ccc(Sc2cc(C)nc(-c3ccccn3)n2)cc1	24%	-16	/	5.2	-7	8%[15.4 µM]	0%
CN(C)CCCNC(=O)C[C@H]1C[C@H](C(=O)N2CCOCC2)[C@@]2(C)c3[nH]c4ccc(Cl)cc4c3CCN2C1=O	/	/	-4.3%	/	-14	/	1%
COc1ccc([C@H]2N[C@]3(CCCN(Cc4ccc(C(F)(F)F)cc4)C3=O)[C@H]3C(=O)N(C)C(=O)[C@@H]23)cc1	/	/	1.6%	/	10	42%	/
COc1ccc(NC(=O)COc2ccc(/C=N/NC(=O)c3cccnc3)cc2OC)cc1	36%[activator]	-15	?	8.2	1	-19%	-19%
CCCc1cc(=O)[nH]c(SCC(=O)N2CCc3ccccc3C2)n1	/	-13	-2.3%	/	-16	-22%	0%
O=C(CNC(=O)Cc1ccccc1)N=Nc1c(O)[nH]c2ccc(Br)cc12	-13%	-11	0.6%	-7.3	-2	?	-15%
O=c1c(Cc2ccc(F)cc2)c(O)ccn1Cc1cccc(Cl)c1	12%	?	1.4%	9.2	-8	?	1%
COc1ccc2[nH]c(=O)c(CN(C(=O)COc3ccccc3)C(C)C)cc2c1	13%	-6	?	-2.3	6	-23%	-3%[15.4 µM]
COc1ccc(/C=N/NC(=O)COc2cccc3cccnc23)cc1OC	13%	2	-1.4%	3.9	12	16%[15.4 µM]	0%
CCCCNC(=O)CCc1nc2cccnc2n1Cc1ccc(OC)cc1	4%	-35	2.0%	0.3	30	23%	7%
CCn1nc(C(=O)NCCc2ccc3c(c2)OCCO3)c2ccccc2c1=O	/	/	0.6%	/	-2	-10%[15.4 µM]	3%
CCCC(=O)Nc1ccccc1N1CCN(C(=O)c2ccccc2)CC1	15%	-11	1.0%	0.9	2	17%	-5%
C/C(=N\N=C1/NC(=O)C(C)S1)c1ccco1 (stereo not drawn)	3%	5	1.5%	2.3	-2	4%[15.4 µM]	-4%
C(=C\c1ccccc1)/C=N/Nc1nncc(-c2ccccc2)n1	8%	19	/	4.1	/	/	/
COCCn1c(SCC(=O)NNC(=O)c2ccc(OC)c(OC)c2)nc2ccccc2c1=O	8%	0	/	3.6	-5	7%[15.4 µM]	6%
CCc1nnc(NC(=O)COc2ccccc2[N+](=O)[O-])s1	5%	/	2.0%	2.0	9	-4%	-11%
COc1ccc(C2=C(CN(C)C)C(c3ccccc3)c3ccccc3O2)cc1 (stereo not drawn)	?	-9&-12	-13%	/	9	-11%	-4%[15.4 µM]
Cc1cccc(C(=O)NCC(=O)N2CCN(c3ccc(Cl)cc3)CC2)c1	19%	2	1.2%	0.0	-13	14%	-9%
O=C(N/N=C/c1ccc[nH]1)c1cc(-c2ccc(Cl)cc2)nc2ccccc12	19%	0	/	6.6	3	22%[15.4 µM]	-44%
CC(C(=O)OCC(=O)NC1CCCC1)N1C(=O)c2ccccc2C1=O (stereo not drawn)	/	/	1.0%	/	1	-12%	0%
CCOc1ccc(NC(=O)CN(C)C(=O)/C=C/c2ccco2)cc1OCC	/	2	0.2%	/	-4	28%	-1%
Cc1nc(NCC2CCCO2)c2nnn(Cc3ccccc3)c2n1 (stereo not drawn)	-7%	-3	-0.5%	12	-12	2%	8%
Cc1ccnc(NS(=O)(=O)c2ccc(NC(=O)Cc3cccs3)cc2)n1	2%	-14	-0.9%	8.0	6	?	-12%
COc1ccc(C2NC(=S)N(c3ccccc3)C(C)=C2C(=O)Nc2ccccc2)cc1 (stereo not drawn)	89µM*	6	-2.1%	6.4	-12	17%	?
CC(C)Cc1ccc(C(C)C(N)=NCCc2ccccc2)cc1 (stereo not drawn)	-10%	-3	/	-5.1	13	28%	19%
CCCCNC(C(=O)Nc1ccc(Cl)c([N+](=O)[O-])c1)c1ccccc1 (stereo not drawn)	?	-5	-0.8%	-0.1	-10	29%[15.4 µM]	-10%
C(#Cc1ccccc1)CN1CCN(c2ccccn2)CC1	-24%	-11	-3.0%	0.4	1&6	?	-3%&3%
Cc1cc(C)c(C#N)c(SCC(=O)Nc2ccccc2C)n1	12%	-1	/	2.0	-2	12%	-5%
CN(C)c1nc(SCCOC(=O)Nc2ccccc2)nc(N(C)C)n1	?	-5	-5.9%	2.0	4	-3%	-26%
O=C(Nc1ccon1)Nc1ccccc1C(F)(F)F	19%	14	0.5%	-4.4	27	12%	8%
Cc1ccc(S(=O)(=O)Nc2nc3cc(C)c(C)cc3[nH]2)cc1	26%	3	/	1.1	21	-4%[15.4 µM]	10%
CCOCCCn1c(SCC(=O)Nc2cc(C(C)(C)C)nn2-c2ccccc2)nc2ccccc2c1=O	4%	0	0.6%	3.1	-5	-36%[inhibitor]	16%
C=Cn1cc[n+](CC(=O)c2ccc(Cl)c(Cl)c2)c1	-6%	0	-0.1%	-1.0	-7	-5%	0%
Cn1c(=O)n(Cc2ccccc2Br)c2ccccc21	14%	-2	/	-2.1	0	12%[15.4 µM]	0%
O=C(COC(=O)CCCC1=NS(=O)(=O)c2ccccc2N1)Nc1ccccc1	8%	14	0.5%	/	9	-28%	7%
CC(C)c1ccc(NC(=O)COC(=O)c2cc(=O)[nH]c3ccccc23)cc1	/	-6	-16%	/	4	-2%	-5%
Cc1ccc(C(=O)NC(=S)NCc2cccnc2)c(C)c1	-3%	0	/	-3.1	37	1%	-5%
Cc1ccc(C(=O)NCC(=O)OC(C)C(=O)Nc2ccc(N3CCOCC3)cc2)s1 (stereo not drawn)	10%	8	1.8%	-1.0	-12	-14%	0%
COc1ccc(Br)cc1C(=O)Nc1ccc(Cc2ccncc2)cc1	-27%	0	-0.5%	5.2	3	-4%	-9%
O=C(NCc1cccs1)c1csc2c1CCCCC2	7%	-20	-0.7%	-2.2	-6	-33%	-1%

Arranged by the number under TRPML1 inh (highest first): some entries from above.
| compound | TRPML1 inh |
| --- | --- |
| Cc1ccc(C(=O)NC(=S)NCc2cccnc2)c(C)c1 | 37 |
| COc1ccc(/C=N/NC(=O)COc2cccc3cccnc23)cc1OC | 12 |
| C/C(=N\N=C1/NC(=O)C(C)S1)c1ccco1 (stereo not drawn) | -2 |

Remaining list, next part.
SMILES	Sfp PPTase inh	TRPV1 potentiator	ClpP mod	Menin-MLL FL inh	TRPML1 inh	gsp ag	gsp antagonist
Oc1ccc(CCC2CCCCN2Cc2nc(C3CC3)no2)cc1 (stereo not drawn)	-2%	-14	-6.3%	-0.2	2	13%[15.4 µM]	-9%
CC1CCC(NC(=O)COc2ccccc2C(N)=O)CC1 (stereo not drawn)	15%	-23	-8.1%	13	-11	0%	10%
COCc1nnc(NS(=O)(=O)c2ccc(F)cc2)s1	5%	8	0.4%	4.0	5	-28%	4%
COc1ccc(N/N=C(\C#N)C(=O)NCCc2ccc(OC)c(OC)c2)cc1	-6%	14	-1.3%	-2.3	2	10%[15.4 µM]	-5%
COc1ccc(-c2nn(-c3ccccc3)cc2C(=O)N2CCN(S(=O)(=O)c3ccccc3[N+](=O)[O-])CC2)cc1	/	/	0.1%	/	4	-29%	-10%
CC1CCN(C(=O)c2ccc(NC(=O)c3cccs3)cc2)CC1	8%	-18	/	-1.4	12	0%	-9%
O=C(c1ccc(CN2CCOCC2)cc1)N1CCC(Cc2ccccc2)CC1	-1%	-11	2.5%	-0.9	6	-1%	-15%
OC(CN(Cc1ccccc1)Cc1ccccc1)c1ccccc1 (stereo not drawn)	/	/	/	/	7	-17%	-9%
O=C(CNC(=O)Cc1ccccc1)NCc1cccs1	/	-1	2.1%	/	26	-16%	16%

As a working copy, 5 of the compounds above:
SMILES	Sfp PPTase inh	TRPV1 potentiator	ClpP mod	Menin-MLL FL inh	TRPML1 inh	gsp ag	gsp antagonist
Oc1ccc(CCC2CCCCN2Cc2nc(C3CC3)no2)cc1 (stereo not drawn)	-2%	-14	-6.3%	-0.2	2	13%[15.4 µM]	-9%
CC1CCC(NC(=O)COc2ccccc2C(N)=O)CC1 (stereo not drawn)	15%	-23	-8.1%	13	-11	0%	10%
COCc1nnc(NS(=O)(=O)c2ccc(F)cc2)s1	5%	8	0.4%	4.0	5	-28%	4%
COc1ccc(N/N=C(\C#N)C(=O)NCCc2ccc(OC)c(OC)c2)cc1	-6%	14	-1.3%	-2.3	2	10%[15.4 µM]	-5%
COc1ccc(-c2nn(-c3ccccc3)cc2C(=O)N2CCN(S(=O)(=O)c3ccccc3[N+](=O)[O-])CC2)cc1	/	/	0.1%	/	4	-29%	-10%

Rows are unselected; any-hit rate near 4.9%.
